VDR inh: Inhibitors of the vitamin D receptor (VDR): qHTS; 400,000 tested, 0.93% active; Vitamin D3 receptor (Homo sapiens), P11473; VDR-SRC2-3 peptide fluorescence polarization, 2 h; Potency, µM, for inactives: max response, negative = inhibition, hits mostly inhibitors; active = well fitted inhibition curve with a large enough effect; inconclusive = small, poorly fitted or top-dose-only effect, or another doubt; inactive = no such curve, though single readings can be large or run the other way; note: series mostly up to about 120 µM
Target sequence (P11473 whole entry, looked up): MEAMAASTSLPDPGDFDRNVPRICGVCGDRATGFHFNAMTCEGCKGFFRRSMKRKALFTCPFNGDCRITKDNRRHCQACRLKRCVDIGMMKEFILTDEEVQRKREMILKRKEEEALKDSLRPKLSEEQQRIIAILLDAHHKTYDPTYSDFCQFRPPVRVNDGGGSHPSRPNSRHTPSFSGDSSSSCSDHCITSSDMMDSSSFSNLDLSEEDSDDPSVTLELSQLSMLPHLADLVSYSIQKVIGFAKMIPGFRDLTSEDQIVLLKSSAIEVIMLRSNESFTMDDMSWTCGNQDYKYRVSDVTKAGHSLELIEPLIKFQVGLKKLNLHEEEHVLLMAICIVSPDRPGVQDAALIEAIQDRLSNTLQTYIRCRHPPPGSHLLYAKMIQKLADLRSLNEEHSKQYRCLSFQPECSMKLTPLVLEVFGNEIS
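FP read-out; VDR + SRC2-3 coactivator peptide; 23 nl compound by pintool; 2 h RT incubation; reagents held at 4 deg C, protected from light.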
* = called active by the depositor; ? = inconclusive; & = joins results of further samples. % is set by controls: 0 for no effect and ±100 for the full control effect; potency is the fitted concentration of half-maximal effect.

molecule	VDR inh
CC(C)Oc1ccc(CN2CCc3nc(Nc4ccc5c(c4)OCCO5)ncc3C2)cc1	12%
Cn1c(=O)n(C)c2cc(NS(=O)(=O)c3ccc4c(c3)CCCC4)ccc21	24%
CCOC(=O)c1c(NC(=O)CSc2nnc(Cc3ccccc3)o2)sc(C)c1C	-7%
COC(=O)C(C)Sc1nnc(-c2ccncc2)o1 (stereo not drawn)	-10%
N#C/C(=C\c1ccc(Br)cc1)c1nc(-c2cc3cc(Br)ccc3oc2=O)cs1	-22%
CCc1noc(C)c1C(=O)N(CC)CC(=O)Nc1cc(Cl)ccc1C	13%
CC(C)(C)Nc1nc(OCC(F)(F)F)nc(OCC(F)(F)F)n1	2%
Cc1nc(SCC2(C)CC2(Cl)Cl)n[nH]1 (stereo not drawn)	10%
Cc1nn(CC(=O)NCCCc2ccccc2)c(=O)c2cccn12	-15%
O=C(NCCCN1CCN(c2ccc(F)cc2)CC1)c1cc2c(Cl)nc3ccccc3c2s1	-4%
COc1cc(CCCN2CCNC[C@H]2Cc2ccc(O)cc2)cc(OC)c1OC	-12%
COc1cc2c(C#Cc3cccnc3)c(-c3ccsc3)oc(=O)c2cc1OC	7%
COC(=O)C1(C(F)(F)F)N=C(C(F)(F)F)Nc2ccc(Cl)cc21 (stereo not drawn)	-3%
COc1ccc(C(CC(=O)NC(C)c2ccc(-c3ccccc3)cc2)NC(C)=O)cc1 (stereo not drawn)	4%
NC(=S)N=Nc1c(O)[nH]c2cc(F)c(F)cc12	-6%
COc1ccc(S(=O)(=O)n2nc(OC(=O)c3cccs3)cc2N)cc1	-2%
Cc1ccc(/C=C/c2onc(C)c2S(=O)(=O)N2CCC(C(=O)Nc3ccc(OC(F)(F)F)cc3)CC2)cc1	1%
O=C(NCc1cccnc1)c1ccc(Cl)c(S(=O)(=O)N2CCCCCC2)c1	?
CCCOc1ccc(C(=O)Nc2ccc3c(c2)OCO3)cc1	-10%
Cc1cccc2c1NC(=O)C21OCC(CO)([N+](=O)[O-])CO1 (stereo not drawn)	-24%
CCOCc1cnc(C)nc1NCC(=O)c1c(C)[nH]c2ccccc12	25%
O=C(NCc1nnc(SCc2ccccc2)n1-c1ccccc1)C12CC3CC(CC(C3)C1)C2	-7%
Cc1ccc(CNC(=O)C2CNc3cc(C)ccc3O2)cc1 (stereo not drawn)	-4%
Oc1ccc(Cn2ccnc2)c2cccnc12	-13%
CC(=O)OCC12COC3c4ccccc4OC(C)(CC1C)C3C2C (stereo not drawn)	6%
O=C(CSC1=NS(=O)(=O)c2cc(Cl)ccc2N1)Nc1ccccc1F	-12%
CCCCN(C)CCC(=O)Nc1ccc(F)c(F)c1	7%
COc1ccc(-c2nnnn2C)cc1S(=O)(=O)Nc1ccc(C)cc1C	10%
Cc1cc(C)c(NC(=O)Cn2c([N+](=O)[O-])cnc2C)c(C)c1	-16%
O=C(CS(=O)(=O)c1ccccc1)N1CCN(c2ccccc2)CC1	-10%
COC(=O)c1ccc(NC(=S)NC(=O)c2c(-c3ccccc3)noc2C)cc1	10%
Cc1cc(C)cc(Nc2cc(C(=O)NCc3ccccc3)c3ccccc3n2)c1	-10%
N#C/C(=C\c1ccc(Cl)cc1)c1nc2ccccc2[nH]1	-26%
O=C(COc1ccc2c3c(c(=O)oc2c1)CCCC3)NCCCn1ccnc1	-1%
COc1ccc(C(=O)OCC(=O)Nc2ccc(OC)c(S(=O)(=O)N3CCCCC3)c2)cc1[N+](=O)[O-]	25%
CC1CC(OCC(O)C[N+]2(C)CCOCC2)CC(C)(C)C1 (stereo not drawn)	-6%
COc1ccc(N/C(=N/c2nc(C)cc(C)n2)NC(=O)Nc2ccc(Cl)c(Cl)c2)c(OC)c1	-17%
CNC(=O)COc1coc(CN2CCN(c3ccccc3OC)CC2)cc1=O	12%
CCC(C(=O)OC)n1cnc2c(cnn2-c2ccc(F)cc2)c1=O (stereo not drawn)	10%
Cc1ccc(OCC(=O)NNC(=O)c2ccc3c(=O)n4c(nc3c2)CCC4)cc1	-4%
O=S(=O)(c1ccc2ccccc2c1)N1CCN(C2CCN(Cc3ccccc3)CC2)CC1	8%
CCOc1cc(/C=C/c2ccc3cccc([N+](=O)[O-])c3n2)cc(Cl)c1O	-3%
O=S(=O)(Nc1ccc2c(c1)OCCO2)c1cnc[nH]1	16%
COc1cc2c(cc1OC)C(c1cc(OC)c(OC)cc1[N+](=O)[O-])N(C(C)=O)CC2 (stereo not drawn)	-21%
Cc1c(C)[n+](=O)c(-c2cccs2)c(C)n1[O-]	2%
CC(=O)Nc1c(O)[nH]c2ccccc12	-10%
O=C(N/N=C/c1coc2ccccc2c1=O)c1cn(-c2ccccc2)nc1-c1ccccc1	-5%
Cn1nc(-c2ccccc2)cc1NS(=O)(=O)c1ccccc1	0%
Cc1ccc2nc(C)cc(N/N=C/c3ccccc3O)c2c1	?
CCOC(=O)c1nnc2c(-c3ccc(Cl)cc3)c(C)nn2c1N	-15%
CC(=O)Nc1ccc(/C=N/NC(=O)c2cc3ccccc3nc2C)cc1	-11%
OCCN(Cc1ccccc1)CC1CC=CCC1 (stereo not drawn)	-1%
CCCCCC(O)c1cccc(OCc2ccc3ccccc3n2)c1 (stereo not drawn)	-8%&0%
O=S(=O)(c1ccc(Br)cc1)c1nc(-c2ccco2)oc1NCCCn1ccnc1	6%
Cc1ccc(NS(=O)(=O)c2ccc3c(c2)CCN3C(=O)C2CC2)c(C)c1	?
Cc1ccccc1C(=O)N1CCN(c2ccc(NC(=O)c3ccc([N+](=O)[O-])o3)cc2)CC1	-16%
NS(=O)(=O)c1ccc(NC(=O)CSc2nnc(Cc3cccs3)n2-c2ccccc2)cc1	-6%
O=C(c1cc2c(cc1Br)OCCCO2)N1CCCCC1	-1%
N#C/C(=C\c1ccc(F)c(Cl)c1)S(=O)(=O)c1ccccn1	6%
CN(C)C(=O)COC(=O)c1ccccc1NC(=O)c1ccco1	-20%

In the list so far, five have an aryl thioether with sulfur outside any ring:
molecule	VDR inh
CCOC(=O)c1c(NC(=O)CSc2nnc(Cc3ccccc3)o2)sc(C)c1C	-7%
COC(=O)C(C)Sc1nnc(-c2ccncc2)o1 (stereo not drawn)	-10%
Cc1nc(SCC2(C)CC2(Cl)Cl)n[nH]1 (stereo not drawn)	10%
O=C(NCc1nnc(SCc2ccccc2)n1-c1ccccc1)C12CC3CC(CC(C3)C1)C2	-7%
NS(=O)(=O)c1ccc(NC(=O)CSc2nnc(Cc3cccs3)n2-c2ccccc2)cc1	-6%

(list continues)
molecule	VDR inh
CN1CCN(CCCNC(=O)c2cn(C3CCCCC3)c(=O)c3c2c2ccccc2n3C)CC1	-3%
CS(=O)(=O)N1CC(C(=O)O)Oc2ccc(CC(=O)O)cc21 (stereo not drawn)	4%
COc1ccccc1NC(=O)CCC(=O)OCc1ccc([N+](=O)[O-])cc1	15%
COc1ccccc1-c1nc2c3ccccc3nc(=S)n2[nH]1	7%
Cc1ccccc1CC(=O)N1CCN(C(=O)C2CCCO2)CC1 (stereo not drawn)	-5%
CC(C)c1ccccc1OCC(=O)Nc1cc(S(=O)(=O)N2CCOCC2)ccc1N1CCCC1	17%
CC(C)OC(=O)c1cc2ccccc2oc1=O	19%
Cc1nn(C)c(NC(=O)c2ccccc2Cl)c1Br	16%
COc1ccccc1-n1cnc2cc(NS(=O)(=O)c3ccc(Br)cc3)ccc21	-2%
COc1ccc(OC)c(CN2CCN(C(=O)CNC(=O)c3ccc(C(C)(C)C)cc3)CC2)c1	10%
COc1ccc(/C=C/C(=O)c2ccccc2)cc1COc1ccccc1F	10%
COc1ccc(CCNC(=O)C(=O)NCC2OCCN2S(=O)(=O)c2ccccc2)cc1OC (stereo not drawn)	-18%
Cc1cccc(NC(=S)N2CCC(N(C)CC3CCCO3)CC2)c1C (stereo not drawn)	-16%
O=C1C(C=NCc2ccncc2)=C(O)c2ccccc21	3%
COc1ccccc1OCCC(=O)OCC(=O)NCc1ccc(F)cc1	-23%
COc1[nH]c(/N=C/c2ccco2)c(C#N)c1C#N	?
COc1ccc(C(=O)N2CCN(C(=O)c3ccco3)CC2)cc1	16%
COc1ccc(Nc2ncc3c(n2)CCN(Cc2cc(Br)cs2)C3)c(OC)c1	8%
Cc1ccc(S(=O)(=O)N2CCOCC2)cc1NC(=O)COC(=O)c1cncc(Br)c1	-6%
O=C(O)C1Cc2ccccc2CN1C(=O)c1ccccc1Cl (stereo not drawn)	12%
Cc1ccc(C(=O)CSc2nnc(N)s2)c(C)c1	-13%
COc1cc(-c2noc(-c3ccco3)n2)cc(OC)c1OC	3%
COc1ccc2cc(C(=O)NCc3ccccc3)[nH]c2c1	8%
O=C(NCCc1ccccc1)c1ccc(CSc2nc3ccncc3n2Cc2ccccc2)cc1	11%
COc1ccc(CC2(CO)CCN(Cc3cnn(-c4ccc(F)cc4)c3)CC2)cc1	-15%
CC1CCCN(C(=O)CSc2nc3ncccc3[nH]2)C1 (stereo not drawn)	-2%
O=C(NCCc1ccc(Cl)cc1)c1ccc(CS(=O)(=O)Cc2ccc(F)cc2)o1	15%
CCCn1c(SCc2ccccn2)nc2c1c(=O)n(C)c(=O)n2C	-15%
CCN(CC)S(=O)(=O)c1cccc(C(=O)N[C@H](C(=O)OCC(=O)Nc2ccccc2)C(C)C)c1	-11%
COc1cc(C=O)ccc1OCc1ccncc1	2%
CN(C)c1ccc(/C=N/NC(=O)C[n+]2ccccc2)cc1	18%
COc1cc(C(c2c(O)nc(SC)[nH]c2=O)c2c(O)nc(SC)[nH]c2=O)cc(OC)c1OC	?
Cc1ccc(S(=O)(=O)NC(N)=NCCc2ccc(Cl)cc2)cc1C	0%
CCOc1ccc(N2CC(C(=O)Nc3ccc4c(c3)OCO4)CC2=O)cc1 (stereo not drawn)	-12%
Brc1ccc2ncnc(Nc3ccc(N4CCOCC4)cc3)c2c1	17%
Cc1cc(C)cc(N(C(=O)c2snc(C(N)=O)c2N)C(C(=O)NCC2CCCO2)c2ccc(C)o2)c1 (stereo not drawn)	15%
O=C1C2C3c4ccccc4C(c4ccccc43)C2c2nc3ccccc3n21 (stereo not drawn)	1%
N#Cc1ccc(OCCN2C(=O)NC3(CCSC3)C2=O)cc1 (stereo not drawn)	8%
CCNC(=S)Nc1ccc(N2CCCCC2)cc1	?
COc1ccc(NC(=S)N(CCC(C)C)C(C)c2ccncc2)cc1 (stereo not drawn)	5%
CCOC(=O)C1(C)NC(c2ccccc2F)C2C(=O)N(CC)C(=O)C21 (stereo not drawn)	18%
CCOC(=O)c1cccc(C2=CC(=O)CC(C)(C)C2)c1	2%
CN1CC[C@]23c4ccccc4N[C@H]1[C@]21CCN(C)[C@H]3Nc2ccccc21	5%
COc1ccc(S(=O)(=O)N2CCC(C(=O)N3CCc4ccccc4C3)CC2)cc1Cl	1%
CC1CCN(C(=O)CN2C(=O)c3ccccc3S2(=O)=O)CC1	4%
CCOc1ccccc1CNC(=O)c1cc2c(=O)n(Cc3cccnc3)ccc2nc1C	8%
COc1ccc(/C=C/c2nc(S(=O)(=O)c3ccccc3)c(N(C)C)o2)cc1	-3%
CC(=O)c1ccc(N2CCN(S(=O)(=O)c3ccc(-c4coc(C)n4)cc3)CC2)cc1	17%
CC1CCN(S(=O)(=O)c2ccc3ccccc3c2)CC1	-10%
Cc1ccccc1-c1nccc(NCc2cccnc2)n1	-9%
CCOc1ccc(CNC(=O)c2[nH]c3ccccc3c2Sc2ccc(C)cc2)cc1	18%
CCCS(=O)(=O)N1CCC(C(=O)Oc2ccc(OC)cc2)CC1	-4%
CC(C)(C)NC(=O)NCCc1ccccc1	-2%
COc1ccc(N(CC(=O)NC2CCCCCC2)S(=O)(=O)c2c(C)nn(C)c2C)cc1	11%
CC1CCCN(Cc2cn3c(-c4cccc(Br)c4)nnc3s2)C1 (stereo not drawn)	-3%
CCNC(=S)NNC(=O)c1cc(Br)cs1	3%
C[C@H](CO)N1C[C@H](C)[C@@H](CN(C)Cc2ccc3c(c2)OCO3)Oc2c(NS(=O)(=O)c3cn(C)cn3)cccc2C1=O	0%
COc1ccc(NC(=O)c2cccc3c2C(=O)N(CC2CCCO2)C3)cc1OC (stereo not drawn)	-11%
Cc1ccc(-n2nc(C)c(C(=O)NCCCN3CCN(c4ccc(F)cc4)CC3)c2-n2cccc2)cc1	3%
CCCN1C2CCCC1CC(NC(=S)NCCCOCC)C2 (stereo not drawn)	-9%

(list continues)
molecule	VDR inh
S=c1[nH]nc(-c2ccc3ccccc3n2)n1-c1ccccc1Cl	-12%
c1cc2c(cc1C1CCCN1)OCCCO2 (stereo not drawn)	9%
CN(C)c1ccc(NC(=O)CSc2nc(C3CC3)nc3ccccc23)cc1	-11%
O=C(Cc1cccc(NC(=O)C2CCN(C(=O)C3CCC3)CC2)c1)Nc1cccc(C(=O)N2CCOCC2)c1	-9%
COCCNS(=O)(=O)c1ccc2c(c1)Cc1cc(S(=O)(=O)NCCOC)ccc1-2	?
O=C(CSc1cn(CCNC(=O)c2ccc3ccccc3c2)c2ccccc12)NCc1ccco1	?

Quoted at random: 3 entries already listed, in no set order.
molecule	VDR inh
Cc1ccc(OCC(=O)NNC(=O)c2ccc3c(=O)n4c(nc3c2)CCC4)cc1	-4%
COc1ccc(-c2nnnn2C)cc1S(=O)(=O)Nc1ccc(C)cc1C	10%
CCOc1ccccc1CNC(=O)c1cc2c(=O)n(Cc3cccnc3)ccc2nc1C	8%

The list is partial (hit frequency here may not be typical).
